Mtb H37Rv: M. tuberculosis H37Rv growth inhibitors, H37Rv strain (AID 1626); M. tuberculosis H37Rv growth inhibition; higher % means a stronger effect; 220,000 compounds, 0.95% hits; one-dose inhibition, % at 10 µM; IC50 in µM for titrated hits;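 active = confirmed in a dose series; inconclusive = inhibition above 80% but not taken into the dose series; inactive = below 80% or under 30% at every dose of the series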;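 note: bacteria incubated seven days before Alamar blue readout; 0% = bacteria only wells and 100% = bacteria with antibiotic wells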
YopH PTP inh: YopH tyrosine phosphatase inhibitors, primary screen, biochemical, fluorescence Ex485/Em525. YopH tyrosine phosphatase [Yersinia enterocolitica]. inhibition, %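 (about 10 µM by stock and volumes)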. 140,000 compounds, 0.16% hits;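 active = inhibition of 50% or more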;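 note: controls were vehicle for no effect and minimum signal wells for full effect; inactives centre near -20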
Arbovirus inh: antivirals against arbovirus infection, primary screen, cell-based, full library, 10K replicate subset. AID 1251, 2008. 200,000 compounds, 0.37% hits. inhibition, % at 10 µM. arbovirus infection cell-based antiviral screen;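 active = inhibition from about 30%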;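 note: bluetongue infection of BSR cells; cell survival read as ATP light after 72 h; 0% = infected wells without compound and 100% = uninfected wells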
RecA splice inh: Mtb RecA intein splicing inhibitors, primary screen, biochemical, fluorescence, HTS; AID 2221, 2009; Protein RecA (Mycobacterium tuberculosis (strain ATCC 25618 / H37Rv)), P9WHJ3; cell-free RecA intein splicing; inhibition, %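 (about 9 µM by stock and volumes)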; 290,000 compounds, 0.75% hits; in the data active = inhibition above about 30%; inconclusive = no clear call, values can overlap the other calls;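 note: 0% = vehicle wells and 100% = reference inhibitor control wells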
Target sequence (P9WHJ3 whole entry, looked up, canonical isoform): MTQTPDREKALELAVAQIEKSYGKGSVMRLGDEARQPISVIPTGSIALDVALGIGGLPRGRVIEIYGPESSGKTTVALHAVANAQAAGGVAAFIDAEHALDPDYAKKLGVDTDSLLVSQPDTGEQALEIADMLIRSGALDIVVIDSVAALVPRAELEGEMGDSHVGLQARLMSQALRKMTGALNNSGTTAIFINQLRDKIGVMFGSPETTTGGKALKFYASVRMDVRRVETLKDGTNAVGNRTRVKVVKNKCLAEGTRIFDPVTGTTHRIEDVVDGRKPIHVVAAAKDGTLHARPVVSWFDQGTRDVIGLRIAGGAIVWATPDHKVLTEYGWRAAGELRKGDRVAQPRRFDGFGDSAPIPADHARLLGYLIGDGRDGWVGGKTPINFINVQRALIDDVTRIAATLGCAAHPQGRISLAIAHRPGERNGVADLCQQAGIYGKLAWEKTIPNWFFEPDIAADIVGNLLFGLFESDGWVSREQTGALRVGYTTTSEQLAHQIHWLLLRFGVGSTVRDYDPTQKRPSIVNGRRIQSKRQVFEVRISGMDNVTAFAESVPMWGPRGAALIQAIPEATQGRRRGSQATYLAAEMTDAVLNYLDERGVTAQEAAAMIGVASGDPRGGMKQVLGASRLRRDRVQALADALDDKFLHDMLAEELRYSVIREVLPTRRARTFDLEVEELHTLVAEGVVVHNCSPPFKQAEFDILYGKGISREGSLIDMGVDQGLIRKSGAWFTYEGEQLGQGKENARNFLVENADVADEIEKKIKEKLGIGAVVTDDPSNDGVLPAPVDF
Mtb betalactam: beta-lactam sensitization of Mtb H37Rv, H37Rv | 330,000 compounds, 0.27% hits | M. tuberculosis H37Rv growth with meropenem, percent inhibition; hits of this screen are not shown here | inhibition, % at 25 µM;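 active = about 74% or more and at least 40 points above the plate without the antibiotic, then above 30% in a dose series; inconclusive = first-round hits that could not be retested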;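 note: growth measured after seven days incubation then overnight dye step; 0% = bacteria only wells and 100% = bacteria with antibiotic; twin plates without the antibiotic show which effects depend on it; some results filed as inactive read as strong as hits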
Arbovirus inh repeat: further read-out of Arbovirus inh, marked with its call; inhibition, %; measured here: 10K subset replicate screen; many hits read low in the repeat;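 first of two repeat runs on a subset; 0% = infected and 100% = uninfected wells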
* = called active by the depositor. An excerpt. The share of hits here may be higher or lower than overall.

`Cc1ccc[n+](C(C)C(=O)c2ccc(-c3ccccc3)cc2)c1` (stereo not drawn) gave Mtb H37Rv -2%, YopH PTP inh -10, Arbovirus inh -10, RecA splice inh -1.8 and Mtb betalactam -4.
`CCOc1cc(CNC(C)(C)CO)cc(Br)c1OCc1ccc(Cl)cc1Cl` gave Mtb H37Rv 11µM*, YopH PTP inh -29, Arbovirus inh -33, RecA splice inh 7.9 and Mtb betalactam 100.
Cc1csc(NC(=O)c2cc(C)oc2C)n1 was read as YopH PTP inh -36, Arbovirus inh -2, RecA splice inh 0.8 and Mtb betalactam -8.
Cc1c(Cl)cccc1NC(=O)NCc1ccncc1 was read as Mtb H37Rv 7%, Arbovirus inh 6, RecA splice inh 0.7 and Mtb betalactam 3.
`Cc1ccc(-c2ccc(=O)n(Cc3cccc(Br)c3)n2)cc1` gave RecA splice inh 2.1 and Mtb betalactam 9.
O=C(COC(=O)/C=C/c1ccccc1[N+](=O)[O-])NCC(F)(F)F was read as Mtb H37Rv -1%, Arbovirus inh 15, RecA splice inh -0.4 and Mtb betalactam -8.
For C=CCOc1ccc(Br)cc1/C=C1/SC(=Nc2ccc(C(=O)O)cc2)NC1=O the results were Mtb H37Rv 4% and Arbovirus inh 32*.
CCN(CCCc1ccccc1)CCCc1ccccc1 was read as Mtb H37Rv 3%, YopH PTP inh -47, Arbovirus inh -19, RecA splice inh 1.0 and Mtb betalactam 1.
Screening CCNc1nc(N)nc(Oc2ccc(OCCOc3ccc(Cl)cc3Cl)nn2)n1 returned Mtb H37Rv 5%, YopH PTP inh 9, Arbovirus inh 7, RecA splice inh 0.7 and Mtb betalactam 10.
COc1cc(CNC(C)c2ccccc2)cc(Br)c1OCc1ccc(F)cc1 (stereo not drawn) was read as RecA splice inh 18 and Mtb betalactam 99.
O=C(CSc1nnc2ccccn12)NNC(=O)c1ccc(Cl)cc1 was read as Mtb H37Rv -3%, Arbovirus inh 7, RecA splice inh -2.1 and Mtb betalactam 1.
For Cc1ccc(NC(=O)CC(NCC2CCCO2)C(=O)O)cc1C (stereo not drawn) the results were Mtb H37Rv -3%, Arbovirus inh 1, RecA splice inh -3.7 and Mtb betalactam -6.
Screening CCCn1c(SCC(=O)c2ccc3c(c2)OCCO3)nc2c1c(=O)n(C)c(=O)n2C returned Mtb H37Rv -2%, YopH PTP inh -29, Arbovirus inh -2 and RecA splice inh -1.6.
For CN(C)/C=N/c1ncc(C(=O)OC(C)(C)C)s1 the results were Mtb H37Rv 7%, Arbovirus inh -5, RecA splice inh -0.9 and Mtb betalactam -4.
`O=C1NC[C@@H](Cc2cccc3ccccc23)N(CCCCC2CCCCC2)C1=O` gave RecA splice inh 5.3 and Mtb betalactam -4.
Screening CN(C)S(=O)(=O)c1ccc(C(=O)Nc2ccccc2OC(F)(F)C(F)F)cc1 returned Mtb H37Rv -5%, YopH PTP inh 9, Arbovirus inh 1, RecA splice inh 1.5 and Mtb betalactam 4.
CCOC(=O)N1CCN(c2nc(-c3ccco3)cc(C(F)(F)F)n2)CC1 was read as Mtb H37Rv -7%, YopH PTP inh -38, Arbovirus inh 5, RecA splice inh -1.6 and Mtb betalactam -3.
For CC(C)(C)NC(=O)CSc1nnc(-c2ccccc2)c(-c2ccccc2)n1 the results were RecA splice inh 4.1 and Mtb betalactam -6.
Screening CCC(C)NC(=O)Cn1cccc1C(=O)c1ccccc1 (stereo not drawn) returned Mtb H37Rv -3%, YopH PTP inh 8, Arbovirus inh 3, RecA splice inh 0.3 and Mtb betalactam -1.
Cc1cccc2c3c([nH]c12)CCN(C)C3 was read as RecA splice inh -0.2 and Mtb betalactam 4.

Molecules listed so far that contain a Cl atom, in the order listed:
`CCOc1cc(CNC(C)(C)CO)cc(Br)c1OCc1ccc(Cl)cc1Cl` gave Mtb H37Rv 11µM*, YopH PTP inh -29, Arbovirus inh -33, RecA splice inh 7.9 and Mtb betalactam 100.
Cc1c(Cl)cccc1NC(=O)NCc1ccncc1 was read as Mtb H37Rv 7%, Arbovirus inh 6, RecA splice inh 0.7 and Mtb betalactam 3.
Screening CCNc1nc(N)nc(Oc2ccc(OCCOc3ccc(Cl)cc3Cl)nn2)n1 returned Mtb H37Rv 5%, YopH PTP inh 9, Arbovirus inh 7, RecA splice inh 0.7 and Mtb betalactam 10.
O=C(CSc1nnc2ccccn12)NNC(=O)c1ccc(Cl)cc1 was read as Mtb H37Rv -3%, Arbovirus inh 7, RecA splice inh -2.1 and Mtb betalactam 1.

More entries
COc1ccc(Cc2nc3ccc(C(=O)N4CCOCC4)cc3o2)cc1 was read as RecA splice inh -0.7 and Mtb betalactam -9.
O=C(Nc1nnc(-c2ccc3c(c2)CCCC3)o1)C1COc2ccccc2O1 (stereo not drawn) was read as Mtb H37Rv inconclusive, YopH PTP inh 9, Arbovirus inh -13, RecA splice inh 2.3, Mtb betalactam 99 and Arbovirus inh repeat -7.
CCCCNC(=S)N/N=C/C1=CCC2CC1C2(C)C (stereo not drawn) was read as Mtb H37Rv 16%, YopH PTP inh -25, Arbovirus inh 6, RecA splice inh 6.8 and Mtb betalactam inconclusive.
COC(=O)Cc1[nH]n(-c2nc3ccccc3s2)c(=O)c1C(C)=Nc1ccc(Cl)cc1 was read as Mtb H37Rv -10%, RecA splice inh 0.6 and Mtb betalactam -1.
Nc1nnc(-c2ccc(Cl)cc2)o1 was read as Mtb H37Rv -6%, RecA splice inh -1.8 and Mtb betalactam 9.
Screening N#Cc1ccccc1N=Cc1ccc(Br)cc1 returned Mtb H37Rv -5%, YopH PTP inh -11, Arbovirus inh 1, RecA splice inh -1.0 and Mtb betalactam -8.
CCc1ccccc1OCC(=O)OCC(=O)N1CC(=O)Nc2ccccc21 was read as Mtb H37Rv 0%, Arbovirus inh 1 and Mtb betalactam 6.
For CCN(CC(=O)Nc1c(F)cccc1F)C(=O)c1cnccn1 the results were RecA splice inh -1.2 and Mtb betalactam -1.
`CCCCNCCOCCOc1ccc(C)cc1[N+](=O)[O-]` gave Mtb H37Rv 2%, YopH PTP inh -40, Arbovirus inh 2, RecA splice inh -0.2 and Mtb betalactam 8.
Screening CCCCOc1c(Br)cc(CNCCCN2CCOCC2)cc1OC returned RecA splice inh 1.5 and Mtb betalactam -6.
Screening O=C1C2CCCN2C(c2cccnc2)N1c1ccc(Cl)cc1 (stereo not drawn) returned Mtb H37Rv -16%, YopH PTP inh -38, Arbovirus inh 9, RecA splice inh -1.6 and Mtb betalactam -7.
O=C(NC1CCCCC1)c1ccc(Br)o1 was read as Mtb H37Rv -1%, YopH PTP inh -51, Arbovirus inh 4, RecA splice inh 2.5, Mtb betalactam 7 and Arbovirus inh repeat -3.
For COc1cc(N/N=C/c2ccc(N(C)C)cc2)ncn1 the results were Mtb H37Rv -6%, Arbovirus inh -13, RecA splice inh -3.8 and Mtb betalactam 0.
`COc1cc(NC(=S)NC(C)(C)C)c(OC)cc1Cl` gave Mtb H37Rv 6%, Arbovirus inh 2 and Mtb betalactam -2.
For Cc1ccc(S(=O)(=O)NC(=O)c2cc(C)n(-c3ccccc3)c2C)cc1 the results were Mtb H37Rv -11%, YopH PTP inh -19, Arbovirus inh -1 and Mtb betalactam -9.
CCCCCCC(=O)N/N=C/c1c(O)n(CCc2ccccc2)c(=O)[nH]c1=O was read as Mtb H37Rv 0%, RecA splice inh 9.6 and Mtb betalactam 32.
For COC(=O)C1C2C=CC3(CN(c4cccc(C)c4)C(=O)C13)O2 (stereo not drawn) the results were YopH PTP inh -35, Arbovirus inh -2, RecA splice inh -1.8 and Mtb betalactam -7.
`C=CCc1ccccc1OCCSc1nc2ccc([N+](=O)[O-])cc2s1` gave Mtb H37Rv 5%, YopH PTP inh -23, Arbovirus inh 15, RecA splice inh 4.8 and Mtb betalactam -1.
For COc1cc(C2C(C(=O)c3ccco3)=C(O)C(=O)N2c2cc(C)on2)ccc1OCc1ccccc1 (stereo not drawn) the results were RecA splice inh -0.1 and Mtb betalactam -5.
`CC(=O)c1cc2c(s1)-c1cc(F)ccc1OC2` gave Mtb H37Rv -14% and Mtb betalactam 0.
Cc1cc(SCC(=O)c2cccs2)n2nc(C)c(-c3ccccc3)c2n1 was read as Mtb H37Rv 1%, YopH PTP inh -28, Arbovirus inh -20, RecA splice inh 3.0 and Mtb betalactam -4.
For CN(C)CCN(C(=O)CCc1ccccc1)c1nc2c(F)cc(F)cc2s1 the results were Mtb H37Rv 5%, Arbovirus inh 8, RecA splice inh 1.4 and Mtb betalactam -1.
`COc1ccc(N2CCN(C(=O)CNS(=O)(=O)c3ccc(C)c(C)c3)CC2)cc1` gave Mtb H37Rv 6%, Arbovirus inh 1, RecA splice inh -0.4 and Mtb betalactam -8.
For O=C(O)C1CCCCC1C(=O)N1CCCC1 (stereo not drawn) the results were Mtb H37Rv -1%, Arbovirus inh 10, RecA splice inh 4.4 and Mtb betalactam -4.
`Fc1ccc(Nc2nc(-c3ccncc3)cs2)cc1` gave Mtb H37Rv 3%, Arbovirus inh 18, RecA splice inh -0.3 and Mtb betalactam 31.
For CCCC(=O)N(c1ccccc1)C1C=CS(=O)(=O)C1 (stereo not drawn) the results were Mtb H37Rv 3%, Arbovirus inh 2, RecA splice inh -0.4 and Mtb betalactam 5.
c1ccc2sc(NN=C3CCCC3)nc2c1 was read as Mtb H37Rv inconclusive, Arbovirus inh -4, RecA splice inh -7.9 and Mtb betalactam -2.
`COc1cc(C(=O)NNC(=O)c2cc(C)[nH]n2)cc(OC)c1OC` gave Mtb H37Rv -1%, Arbovirus inh -2, RecA splice inh -7.1 and Mtb betalactam -6.
For Cc1c(NC(=O)COC(=O)c2ccc(F)c(S(=O)(=O)N3CCOCC3)c2)c(=O)n(-c2ccccc2)n1C the results were Mtb H37Rv 1%, Arbovirus inh -1, RecA splice inh 0.5 and Mtb betalactam 6.
Cc1ccc(-c2nnn(C/C(N)=N/O)n2)cc1 was read as Mtb H37Rv -6%, Arbovirus inh 1, RecA splice inh -0.1 and Mtb betalactam 0.
For CCCNC(=O)C(NS(=O)(=O)c1cccc2nsnc12)c1ccccc1 (stereo not drawn) the results were Mtb H37Rv -7%, YopH PTP inh -41, Arbovirus inh 7, RecA splice inh 0.5 and Mtb betalactam -6.
`Cc1ccc(-c2nc(CN3CCCCC3CCN3CCCC3=O)c(C)o2)o1` (stereo not drawn) gave Mtb H37Rv 5%, Arbovirus inh -2, RecA splice inh -1.9 and Mtb betalactam -6.
`CCOC(=O)c1cccc(NC(=O)C2(S(=O)(=O)c3ccc(C)cc3)CC2)c1` gave Mtb H37Rv -7%, YopH PTP inh -22, Arbovirus inh -5, RecA splice inh 0.8 and Mtb betalactam 3.
Screening Cc1cc(C(=O)CCl)c(C)n1-c1cccc([N+](=O)[O-])c1 returned Mtb H37Rv 9µM*, Arbovirus inh -31, RecA splice inh 5.8 and Mtb betalactam 100.
Screening O=C(c1ccc(Br)c([N+](=O)[O-])c1)N1CCN(Cc2ccccc2)CC1 returned RecA splice inh -0.2 and Mtb betalactam 8.
For COc1ccc(Cl)cc1NC(=O)CCN1CCN(c2ccccc2C)CC1 the results were Mtb H37Rv -6%, YopH PTP inh -47, Arbovirus inh -8, RecA splice inh 0.5 and Mtb betalactam -2.
`CC(C)Cc1nnc(NC(=O)CCc2c[nH]c3ccccc23)s1` gave Mtb H37Rv -2%, Arbovirus inh 2, RecA splice inh -3.1 and Mtb betalactam 1.
Screening O=C(Nc1cccc(C(F)(F)F)c1)C1CCCN1S(=O)(=O)c1cccc2cccnc12 (stereo not drawn) returned Mtb H37Rv -8%, YopH PTP inh -57, Arbovirus inh 24, RecA splice inh -1.9 and Mtb betalactam -9.
`CCOc1cc(/C=N/N2C(=O)NC3(CCCCC3)C2=O)cc(Br)c1O` gave Mtb H37Rv 12%, Arbovirus inh 3, RecA splice inh 1.2 and Mtb betalactam 3.
Screening CC(C)C(C(=O)OCC(=O)c1cccc([N+](=O)[O-])c1)N1C(=O)[C@@H]2[C@H]3CC[C@H](C3)[C@@H]2C1=O (stereo partly drawn) returned Mtb H37Rv -4%, YopH PTP inh -20, Arbovirus inh 6, RecA splice inh -2.0 and Mtb betalactam 4.
`CC(=O)Nc1ccccc1NC(=O)CN(C)S(=O)(=O)c1ccc(C)cc1` gave Mtb H37Rv 0%, YopH PTP inh 14, Arbovirus inh 0, RecA splice inh -1.0 and Mtb betalactam 2.
`O=C(O)c1ccc2c(c1)C(=O)N(c1ccc(/C=C/C(=O)c3ccccc3)cc1)C2=O` gave Mtb H37Rv -2%, Arbovirus inh 6, RecA splice inh 5.8 and Mtb betalactam -3.
For O=C(Nc1ccnn1C1CCN(Cc2cccc(O)c2)CC1)C1CCCC1 the results were RecA splice inh 2.1 and Mtb betalactam inconclusive.
